FGF22 binding – binders of human FGF22 protein, primary screen, FGF22 synaptogenesis inhibitor project, biophysical, thermal shift, single point. Fibroblast growth factor 22 (Homo sapiens), Q9HCT0. recombinant FGF22 thermal shift, SYPRO orange fluorescence; percent of sucrose octasulfate shift, DMSO zero. calls only at 9.99 µM. 1.5% of 340,000 active. AID 651658, 2012;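 active = melting point raised past a set limit in the mean and every replicate; inconclusive = no clear call; three in four hits are not shown here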
Target sequence (Q9HCT0 whole entry, looked up): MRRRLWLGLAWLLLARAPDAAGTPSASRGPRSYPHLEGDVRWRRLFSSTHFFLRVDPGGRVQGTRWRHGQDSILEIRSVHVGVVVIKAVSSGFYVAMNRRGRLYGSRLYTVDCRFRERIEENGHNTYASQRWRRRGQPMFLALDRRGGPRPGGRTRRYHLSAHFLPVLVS
rRNA inh HTS – reduced GFP signal of wild-type E. coli, primary screen, bacterial rRNA inhibitor project, GFP/RFP fluorescence, OD600, single point. E. coli WT GFP vs humanized-ribosome RFP mutants, 24 h; stronger effect = lower value; DMSO median 0, no signal -100. GFP signal change (wild-type ribosome), % (no concentration beside the values). 1.6% of 350,000 active;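 active = significant combined selectivity score with lowered wild-type GFP, culture density cut under 30%, mutant RFP and density less affected; inactive = any of these conditions unmet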; note: one replicate is shown; some compounds called inactive have numbers as strong as hits
HNF4A DNA FP – change in binding of human HNF4A to DNA, primary screen, biochemical, fluorescence polarization, FITC-DNA | activity change, % at 10 µM | 0.3% of 360,000 active | Hepatocyte nuclear factor 4-alpha (Homo sapiens), P41235 | 1 h; in the data active = activity change above about 30%, passing the limit was not always enough;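 note: controls were the assay level and a saturating level of protein; the project sought stronger binding though the title names inhibitors; some compounds called inactive have numbers as strong as hits; positive values seem to mean higher polarization but the record does not say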
Target sequence (P41235 whole entry, looked up): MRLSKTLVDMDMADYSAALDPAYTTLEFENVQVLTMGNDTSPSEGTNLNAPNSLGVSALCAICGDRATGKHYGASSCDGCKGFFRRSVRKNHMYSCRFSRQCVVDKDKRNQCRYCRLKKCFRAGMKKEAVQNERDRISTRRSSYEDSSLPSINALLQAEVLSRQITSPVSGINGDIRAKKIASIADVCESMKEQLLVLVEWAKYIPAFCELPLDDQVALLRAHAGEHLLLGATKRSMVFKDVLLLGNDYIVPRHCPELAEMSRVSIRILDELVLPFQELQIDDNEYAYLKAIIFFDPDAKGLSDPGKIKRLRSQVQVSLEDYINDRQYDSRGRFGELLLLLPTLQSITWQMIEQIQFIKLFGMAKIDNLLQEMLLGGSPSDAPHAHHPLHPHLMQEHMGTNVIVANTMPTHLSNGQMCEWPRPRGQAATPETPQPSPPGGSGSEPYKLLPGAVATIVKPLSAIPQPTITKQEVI
AF4-AF9 inh – inhibitors of AF4 peptide binding to AF9, primary screen, biochemical, AlphaScreen, biotin-AF4 peptide, FLAG-AF9, single point; Protein AF-9 (Homo sapiens), P42568; inhibition, % at 10 µM; 0.47% of 350,000 active; AID 651704, 2012;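 active = every replicate reaching a set inhibition limit, whatever the replicate mean, cut at about 25% in these data; inconclusive = mean inhibition reaches that limit but some replicates miss it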;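 note: 0% = plate neutral control median and 100% = total signal loss; the record names both 10 and 1 µM as test concentration; the first replicate is given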
Vif TR-FRET – inhibitors of Vif binding to APOBEC3G peptide, primary screen, biochemical, TR-FRET, GST-Vif 1-94, biotin-A3G peptide, dose response retest (AID 1117319). 0.57% of 260,000 active. Virion infectivity factor (Human immunodeficiency virus type 1 group M subtype B (isolate …. TR-FRET GST-Vif / biotin-A3G peptide binding; higher % means a stronger effect; test concentration not given here; strong numbers were not always called active. inhibition, %; hits with a dose series show IC50 in µM;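 active = above the screen mean plus three standard deviations and confirmed in dose response; inconclusive = results disagree or hit not tested in dose response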;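 note: Vif residues 1-94 fused to GST binding biotinylated APOBEC3G peptide 110-148; 0% = full assay without inhibitor and 100% = GST in place of GST-Vif; retest series ran down from 100 µM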
E coli growth – E. coli growth inhibition, primary screen, OD600 | 0.21% of 330,000 active | OD600 absorbance (test concentration not listed) | Escherichia coli growth, 23 h; stronger effect = lower value;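 active = OD600 absorbance below the run mean of sample wells minus 3.6 SD, in any replicate, cut at about 0.56 in these data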;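 note: stock transfer was 300 nL into about 60 µL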
ALR H2O2 inh – inhibitors of human ALR sulfhydryl oxidase, primary screen, biochemical, H2O2 detection, HRP-luminol luminescence, single point. FAD-linked sulfhydryl oxidase ALR (Homo sapiens), P55789. purified ALR, DTT oxidation. inhibition, % (concentration not given with the values). 3.8% of 290,000 active. AID 485317, 2010;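 active = mean and each replicate at 75% or more; inconclusive = only one of the two met; inactive = neither met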;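 note: stock transfer was 7.5 nL into about 7.5 µL; 0% = neutral wells and 100% = wells with inactivated enzyme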
Target sequence (P55789 whole entry, looked up): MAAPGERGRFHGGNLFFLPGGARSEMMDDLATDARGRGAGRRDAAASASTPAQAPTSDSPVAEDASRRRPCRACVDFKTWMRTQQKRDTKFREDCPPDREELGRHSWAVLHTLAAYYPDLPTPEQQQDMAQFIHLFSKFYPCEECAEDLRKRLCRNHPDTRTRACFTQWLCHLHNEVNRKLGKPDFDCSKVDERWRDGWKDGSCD
rRNA inh HTS OD600 – recorded beside rRNA inh HTS, whose call it bears; OD600 change, %; measured here: OD600 growth;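 optical density of the mix in the first replicate; 0 = DMSO median and -100 = no signal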
rRNA inh HTS RFP – also measured in rRNA inh HTS; calls as there; RFP signal change, %; measured here: RFP humanized mutant strains;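 first replicate; 0 = DMSO median and -100 = no signal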
Starred values were filed as active, the others as inactive; i = inactive; u = inconclusive; x = no result given; & = joins results of further samples.

SMILES	FGF22 binding	rRNA inh HTS	rRNA inh HTS OD600	rRNA inh HTS RFP	HNF4A DNA FP	AF4-AF9 inh	Vif TR-FRET	E coli growth	ALR H2O2 inh
O=C(NC1CCN(Cc2ccccc2)CC1)c1ccc(Cl)cc1Cl	i	5	4	-3.2	6.4	0.0	-12%	0.67	1
COc1ccc2oc(C(=O)N(CC(C)C)C3CCS(=O)(=O)C3)c(C)c2c1 (stereo not drawn)	x	-3	-4	0.2	4.0	-1.7	0%	0.66	-4
COc1cccc(C(=O)N/N=C2\SCC(=O)N2Cc2ccc3c(c2)OCO3)c1	x	x	x	x	5.0	x	-3%	x	-4
CC1CCN(C(=S)c2cn(Cc3ccc(F)cc3)c3ccccc23)CC1	x	3	-4	-0.2	0.9	x	-3%	0.76	-13
CCCC(=O)Nc1ccc2c(c1)OC[C@H](C)N(Cc1ccncc1)C[C@H](C)[C@@H](OC)CN(C)C2=O	i	-2	-2	0.8	x	-1.7	x	x	x
CCCN(Cc1ccco1)S(=O)(=O)c1ccc(OC)c(OC)c1	i	-20*	-11*	0.7*	4.9	-2.1	1%	0.67	-1
Cc1c(C)c2c(OCC(=O)N3CCC(C(=O)NCC(C)C)CC3)cc3c(c2oc1=O)CCC(C)(C)O3	x	x	x	x	1.2	x	4%	0.67	-11
Clc1ncnc2scc(C3COc4ccccc4O3)c12 (stereo not drawn)	x	x	x	x	2.9	x	u	0.67	44
COC(=O)c1ccccc1NC(=O)Cn1cc(Br)cn1	x	x	x	x	-1.4	x	-7%	0.73	-7
COc1ccc2c(c1)OC(c1ccccc1)(C(F)(F)F)NC2=O (stereo not drawn)	x	x	x	x	-4.2	x	-10%	0.71	x

Some of the entries above, set out differently:
molecule | FGF22 binding | rRNA inh HTS | rRNA inh HTS OD600 | rRNA inh HTS RFP | HNF4A DNA FP | AF4-AF9 inh | Vif TR-FRET | E coli growth | ALR H2O2 inh
Clc1ncnc2scc(C3COc4ccccc4O3)c12 (stereo not drawn) | x | x | x | x | 2.9 | x | u | 0.67 | 44
CCCC(=O)Nc1ccc2c(c1)OC[C@H](C)N(Cc1ccncc1)C[C@H](C)[C@@H](OC)CN(C)C2=O | i | -2 | -2 | 0.8 | x | -1.7 | x | x | x

Continued.
SMILES	FGF22 binding	rRNA inh HTS	rRNA inh HTS OD600	rRNA inh HTS RFP	HNF4A DNA FP	AF4-AF9 inh	Vif TR-FRET	E coli growth	ALR H2O2 inh
Cc1nc2ccccc2c(=O)n1NC(=O)c1ccc([N+](=O)[O-])cc1Cl	i	9	4	-4.7	2.1	-1.0	x	0.67	-13
COCC(=O)N1[C@H](CO)[C@H](c2ccc(-c3cccc(OC)c3)cc2)C12CN(C(C)=O)C2	i	-2	1	-2.5	x	0.2	x	x	x
CCC(C)Nc1ncnc2c1cnn2Cc1ccc(Cl)cc1 (stereo not drawn)	i	-14	-50	0.9	-4.7	-1.6	16%	0.73	-1
COCCCn1nnnc1SCC(=O)N1CCN(C(=O)c2ccco2)CC1	i	2	8	-1.3	3.0	-0.6	4%	0.65	-1
CC(C)(C)C(=O)Nc1cccc(-c2ccc[nH]2)n1	i	-1	4	6.8	-0.1	3.4	-1%	x	x
Cc1ccc(NC(=O)c2cc(NC(=O)c3ccccc3C(=O)O)ccc2N2CCCCC2)cc1	i	-28	-27	-1.7	1.2	0.9	-6%	0.69	99*
C[C@H](CO)N1C[C@H](C)[C@@H](CN(C)C(=O)c2ccncc2)OCCCC[C@H](C)Oc2ccc(NS(=O)(=O)c3cn(C)cn3)cc2C1=O	i	3	5	-1.3	x	-7.4	x	x	x
COc1ccc(NC(=O)Nc2ccc3c(c2)C(=O)N([C@@H](C)CO)C[C@H](C)[C@H](CN(C)Cc2ccncc2)OCCCC[C@H](C)O3)cc1	i	-3	-14	2.7	x	5.3	x	x	x
Nc1ccc2c(c1)CCC2=O	x	x	x	x	11	x	-5%	0.74	23
CCn1ncc(/C=N\NC(=O)c2csc3ccccc23)c1C	x	x	x	x	0.7	x	19%	x	-2
COc1ccc(C2CC(c3ccccc3)=NN2C(=O)COC(=O)c2cc(S(=O)(=O)N3CCOCC3)ccc2Cl)cc1 (stereo not drawn)	x	9	-10	-2.3	-3.0	1.7	-9%	0.71	-1
COc1ccc(CC(=O)Oc2cc(C)[nH]c(=O)c2[N+](=O)[O-])cc1	x	x	x	x	1.8	x	-1%	0.73	x
COc1ccc(-c2csc(NC(=O)CC(C)C)n2)cc1	x	x	x	x	4.9	x	1%	0.73	-1
Cc1cccc(NC(=S)N(Cc2ccco2)C(C)c2cccs2)c1 (stereo not drawn)	i	-5	-19	-0.9	-2.4	4.2	-13%	0.72	-6
COc1cccc(-c2cccc(-c3nc(C(=O)N(C)C)cc4c3[C@@H](CCO)N([S@](=O)C(C)(C)C)C4)c2)c1	i	-4	0	2.4	x	2.1	x	x	x
Cc1onc(-c2ccccc2Cl)c1C(=O)NCc1cccs1	x	x	x	x	-5.2	x	7%	0.69	-17
COc1ccc(CCC(=O)NC2CCCc3ccccc32)cc1OC (stereo not drawn)	i	1	1	-2.7	3.2	1.4	x	0.7	-7
COc1ccc2c3c([nH]c2c1)[C@H](CO)N(C)CC31CN(S(=O)(=O)c2cn(C)cn2)C1	i	3	-1	-2.4	x	-0.4	x	x	x
COC(=O)C[C@H]1C[C@@H]2c3cc(NC(=O)NC4CCCCC4)ccc3O[C@@H]2[C@H](CO)O1	i	-3	-4	-4.8	x	1.3	x	x	x
C[C@@H]1CN([C@H](C)CO)C(=O)Cc2cc(NC(=O)CCN3CCOCC3)ccc2O[C@@H]1CN(C)Cc1ccncc1	i	6	13	-0.7	x	-1.2	x	x	x
Cc1cc(=O)oc(C)c1C(=O)NCCc1ccccc1	x	x	x	x	-2.2	x	0%	0.62	3
CC(=O)Nc1cc(-c2ccc(C(=O)NC3CC3)cc2)cn2c(-c3cccc(C(F)(F)F)c3)cnc12	i	4	2	24	12	-1.0	x	x	x
COc1ccc(CCNC(=O)c2ccc(-c3ccc([N+](=O)[O-])cc3Cl)o2)cc1	i	-23*	-11*	-2.9*	-1.6	-5.2	x	0.66	-1
O=C(NC1CC1)C1=COCCO1	x	x	x	x	-1.0	x	-5%	0.64	-13
COc1ccc(NC(=O)CSc2nnc(C3CC3)n2C)cc1S(=O)(=O)N1CCOCC1	i	10	18	-0.8	1.6	1.7	0%	0.67	-5
C[C@@H]1CN([C@@H](C)CO)C(=O)c2cc(NS(=O)(=O)c3ccc(Cl)cc3)ccc2O[C@@H]1CN(C)C	i	3	-10	2.1	x	-3.2	x	x	x
CCCNc1nc(Cl)nc(NCc2cccnc2)n1	i	17	4	3.3	0.9	15	x	0.65	-1
Cc1cccc(C(=O)NC2CC3CCCC(C2)N3S(=O)(=O)c2ccccc2)c1 (stereo not drawn)	x	x	x	x	0.6	x	0%	0.66	5
O=C(CSc1nnc(-c2n[nH]c3ccccc23)n1-c1ccccc1)Nc1cccc(Cl)c1	x	x	x	x	-0.1	x	4%	0.65	-2
CCOC(=O)C1(C)CCCN(C(=O)c2cccnc2)C1 (stereo not drawn)	i	7	15	-1.1	0.0	-20	x	x	x
COc1ccc(N2CCN(C(c3cccc(OC)c3OC)c3nnnn3C3CCCC3)CC2)cc1 (stereo not drawn)	x	x	x	x	1.6	x	7%&7%	0.71	8
COc1ccc(C(=O)Nc2ccc3nc(N4CCCCC4)cc(C)c3c2)cc1OC	x	x	x	x	3.0	x	x	0.69	5
Cc1ccc(S(=O)(=O)N(C)CC(=O)OCC(=O)NC(c2ccccc2)c2ccccc2)cc1	i	-11	-26	-1.1	-6.3	-0.1	7%	0.7	2
C/C(=N\NC(=O)c1nnn(-c2nonc2N)c1-c1cccs1)c1ccc(C)cc1	i	13	15	0.9	-4.0	6.9	x	x	-5
COc1ccc(NC(=O)N(C)C[C@H]2Oc3ncc(C#CC(C)C)cc3C(=O)N([C@H](C)CO)C[C@H]2C)cc1	i	-4	-3	-0.1	x	-7.8	x	x	x
CCCCCNC1=CC(=O)CC(c2ccccc2)C1 (stereo not drawn)	x	x	x	x	2.1	x	24%	0.74	4
COc1ccccc1C(=O)NCC(=O)OCc1ccc(Br)cc1	x	x	x	x	0.2	x	u	0.7	-10
COc1ccccc1OCc1ccc(C(=O)NN)o1	i	5	0	4.8	-1.4	2.2	x	0.68	90*
COCC(=O)NCc1ccc2c(c1)cc(C)n2C	i	10	9	14	-4.0	0.7	-4%	0.72	-19
CCOc1ccccc1C=NNC(=O)C(=O)NN=Cc1ccccc1OCC	i	x	x	x	-4.2	-1.0	5%	0.65	x
Cc1noc(C)c1S(=O)(=O)N(C)C[C@H]1OCCCC[C@@H](C)Oc2ccc(NS(=O)(=O)c3cn(C)cn3)cc2C(=O)N([C@H](C)CO)C[C@@H]1C	i	3&1	3&10	5.6&2.2	-1.6	-1.6&-5.2	1%	x	x
CNC[C@@H]1Oc2c(NS(=O)(=O)c3ccc(F)cc3)cccc2C(=O)N([C@@H](C)CO)C[C@H]1C	i	3	8	-0.8	x	-3.1	x	x	x
O=C(COC(=O)c1ccccc1Br)Nc1ccc(F)cc1	i	-25	-34	-7.0	-2.3	-1.5	x	0.68	-14
C[C@@H]1CN([C@H](C)CO)C(=O)c2cc(N(C)C)ccc2O[C@@H]1CN(C)C(=O)Nc1ccc(F)cc1	i	4	12	0.4	x	6.0	x	x	x
O=C(O)c1ccc(S(=O)(=O)N2CCC(c3nc(-c4ccccc4Cl)no3)CC2)cc1	x	x	x	x	2.4	x	-5%&3%	0.69	-1
Cc1ccccc1-c1nnc(-c2ccccc2C)o1	x	x	x	x	-4.6	x	8%	0.73	-1
CCc1cccc(NC(=O)COc2ccccc2)c1	x	x	x	x	-1.2	x	-1%	0.63	-6
CCCC#Cc1ccc2c(c1)O[C@@H](CN(C)C(=O)C1CCC1)[C@@H](C)CN([C@H](C)CO)S2(=O)=O	i	-8	-49	7.5	x	4.1	x	x	x
O=C(COC(=O)c1cccs1)Nc1ccc(Cl)cn1	i	0	8	-1.4	0.1	-2.5	x	0.7	-3
O=[N+]([O-])c1nn(-c2ccc3c(c2)OCCO3)n(O)c1=NC1CCCC1	x	x	x	x	3.2	x	18%	0.76	-16

Following part.
SMILES	FGF22 binding	rRNA inh HTS	rRNA inh HTS OD600	rRNA inh HTS RFP	HNF4A DNA FP	AF4-AF9 inh	Vif TR-FRET	E coli growth	ALR H2O2 inh
CC(C)NC(=O)Nc1ccc2c(c1)CC(=O)N([C@H](C)CO)C[C@@H](C)[C@@H](CN(C)S(=O)(=O)c1cn(C)cn1)O2	i	2	3	-2.2	x	-1.6	x	x	x
Cc1ccc(/C=C/C(=O)c2c(C)cc(C)[nH]c2=O)cc1	i	13	12	-2.6	-2.2	6.2	-3%	0.72	x
COc1cccc(C2c3[nH]c4ccccc4c3CCN2Cc2cnn(C)c2)c1 (stereo not drawn)	i	5	-10	0.1	-3.8	-6.7	11%	0.73	x
COc1ccc(CN(C)C[C@H]2Oc3ccc(N(C)C)cc3CC(=O)N([C@@H](C)CO)C[C@@H]2C)cc1	i	4	8	1.5	x	1.6	x	x	x
O=C(NCCOc1ccccc1)C1CCN(C(=O)Nc2ccccc2)CC1	i	7	8	2.3	5.8	1.2	0%	x	x

High-throughput results deposited in PubChem BioAssay by several laboratories.

Not all compounds are listed; rates above refer to the full screens.
